# VDR inh: blocks the human vitamin D receptor; VDR-SRC2-3 peptide fluorescence polarization, 2 h; Potency, µM, without a hit: max response, negative = inhibition, actives largely listed as inhibitors; AID 504847; 400,000 compounds, 0.93% hits; P11473; active means well fitted inhibition curve with a large enough effect; inconclusive means small, poorly fitted or top-dose-only effect, or another doubt; inactive means no such curve, though single readings can be large or run the other way; further: series mostly up to about 120 µM
# Target sequence (P11473 whole entry, looked up): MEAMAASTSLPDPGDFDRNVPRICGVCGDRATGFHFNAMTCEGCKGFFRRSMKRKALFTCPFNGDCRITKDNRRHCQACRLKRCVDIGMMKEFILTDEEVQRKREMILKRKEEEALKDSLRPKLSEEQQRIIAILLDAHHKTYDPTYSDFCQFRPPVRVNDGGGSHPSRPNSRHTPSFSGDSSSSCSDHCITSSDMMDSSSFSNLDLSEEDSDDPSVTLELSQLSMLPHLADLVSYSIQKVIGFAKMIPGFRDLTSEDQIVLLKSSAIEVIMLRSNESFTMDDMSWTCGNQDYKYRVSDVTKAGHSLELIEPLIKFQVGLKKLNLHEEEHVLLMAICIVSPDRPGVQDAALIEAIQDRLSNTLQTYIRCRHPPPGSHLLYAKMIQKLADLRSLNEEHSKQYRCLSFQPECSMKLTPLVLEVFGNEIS
#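 The screen uses fluorescence polarization to detect compounds that interfere with recruitment of the SRC2-3 coactivator peptide to VDR; plates are read after 2 h at room temperature.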
# * hit, by the source's call; ? = inconclusive; & = joins results of further samples. On the % scale 0 is the no-effect control and ±100 the full control effect; potency means the concentration at half of the fitted maximal effect. Some of the compounds tested, so the mix of outcomes need not match the whole.
SMILES,VDR inh
CC1CCC(NC(=O)C(=O)Nc2ccc3c(c2)OCO3)CC1 (configuration not stated),1%
COc1ccccc1OCCC(=O)OCC(=O)NC(C)c1ccccc1 (configuration not stated),-14%
O=C(Nc1cc(Br)ccc1O)c1cc(-c2ccccc2)on1,-10%
Cc1ccccc1-c1noc(CNC(=O)c2ccco2)n1,-22%
CCOc1ccc(C(=O)Nc2ccccc2OC(F)F)cc1,0%
O=C(NCCNc1ccc([N+](=O)[O-])cc1C(F)(F)F)c1ccc(F)cc1,-19%
CCOc1cc(/C=N/NC(=O)c2ccncc2)ccc1OC(=O)c1ccc([N+](=O)[O-])cc1,-5%
COc1ccc(CC(=O)OCC(=O)Nc2c(C)n(C)n(-c3ccccc3)c2=O)cc1OC,-7%
CC(C)CC(NC(=O)COc1ccccc1)C(=O)O (configuration not stated),-24%
CCCCNC(=O)NNC(=O)COc1cc(C)cc(C)c1,1%
CSc1nc(-c2ccccc2Cl)nc2c1Cc1c(CO)cnc(C)c1O2,6%
COC(=O)C1=CN(c2ccc(OC)cc2)C=C(C(=O)OC)C1c1ccc(C)c([N+](=O)[O-])c1,-19%
CCOc1ccc(-c2nn(-c3ccccc3)cc2/C=C(\C#N)S(=O)(=O)c2ccccc2)cc1C,5%
Cc1cc2c(cc1S(=O)(=O)N1CCc3ccccc31)NC(=O)CO2,0%
Cc1ccc(C)c(N(CC(=O)NC2CCCCC2)C(=O)c2csnn2)c1,-17%

# Quoted at random: four records from the list, in no set order.
SMILES,VDR inh
CCOc1cc(/C=N/NC(=O)c2ccncc2)ccc1OC(=O)c1ccc([N+](=O)[O-])cc1,-5%
O=C(Nc1cc(Br)ccc1O)c1cc(-c2ccccc2)on1,-10%
CCOc1ccc(C(=O)Nc2ccccc2OC(F)F)cc1,0%
COc1ccccc1OCCC(=O)OCC(=O)NC(C)c1ccccc1 (configuration not stated),-14%

# (next part)
SMILES,VDR inh
CS(=O)(=O)NCCSc1nnnn1-c1ccccc1,2%
CC(=O)N1CCN(C(=O)COc2ccc(Br)cc2)CC1,13%
O=C(CSc1cc(Cl)ccc1Cl)NCC(=O)Nc1ccc(F)c(F)c1F,1%
S=C(NNc1ccc2ccccc2c1)NC1CCCCC1,?
Cn1cnnc1SCc1ccccc1[N+](=O)[O-],-16%
Cc1ccccc1CS(=O)(=O)CCC(=O)N1CCN(c2ccc(N3CCOCC3)nn2)CC1,-13%
CCOc1ccc(-c2nn(-c3ccccc3)cc2/C=C2\SC(N)=NC2=O)cc1C,-1%
CCC(C(=O)Nc1ccccc1C(=O)N1CCOCC1)N1C(=O)c2ccccc2C1=O (configuration not stated),14%
CCN(Cc1cccs1)C(=O)CN1C(=O)NC2(CCCc3ccccc32)C1=O (configuration not stated),1%
COc1ccc(C(=O)CC2OC(=O)c3c2ccc(OC)c3OC)cc1 (configuration not stated),-3%
Cc1cccc(NC(=S)NNC(=S)NC2CCCCC2)c1C,-12%
O=C(Cn1cc([N+](=O)[O-])ccc1=O)N1CCCc2ccccc21,-13%
O=C(c1ccco1)N1N=C2CCCCCC2C1(O)C(F)(F)F (configuration not stated),-11%
O=C(c1ccc(N2CCCC2)c([N+](=O)[O-])c1)N1CCN(S(=O)(=O)c2ccc(Cl)cc2)CC1,2%
Cn1cc(S(=O)(=O)NCc2ccc3c(c2)OCO3)c(C(F)(F)F)n1,-3%
CC(Oc1ccccc1)C(=O)N1CCC2(CC1)Oc1ccc(F)cc1C(=O)C21CC(c2ccccc2)=NO1 (configuration not stated),?
CC(C)Nc1nc(N(c2ccccc2)c2ccccc2)nc(-n2ccnc2)n1,-19%
CCCN(S(=O)(=O)c1ccc(OCC)cc1)S(=O)(=O)c1cccs1,-17%
CN(CCc1cnn(C)c1)Cc1nc(Cc2ccccc2)no1,-2%
Oc1c(N=Nc2ccc(F)cc2)ccc2ccccc12,?
CCOC(=O)c1ccc(NC(=O)CC2SC3=NCCN3C2=O)cc1 (configuration not stated),-5%
O=C(CSc1nc2ccccc2[nH]1)NCCN1CCCCC1,4%
Cc1sc2ncnc(N=Nc3c(O)[nH]c4ccccc34)c2c1C,-8%
Cc1cccc(C)c1OCc1cc(=O)n2c3c(sc2n1)CCCC3,-15%
S=c1[nH]nc(-c2cc(-c3ccco3)[nH]n2)n1-c1ccccc1,-4%
CCC(=O)OCCNc1cc(SCCC(=O)OC)c2nonc2c1[N+](=O)[O-],?
CCOC(=O)Cn1cnc2c(cnn2-c2ccc(Cl)cc2)c1=O,-5%
Nc1cc(=O)[nH]c(SCCNS(=O)(=O)c2ccccc2)n1,8%
O=C(NCCc1ccc(F)cc1)c1ccc(S(=O)(=O)N2CCCCC2)cc1,?
Cc1ccc(-c2nc(SCC(=O)c3c(N)n(C)c(=O)n(C)c3=O)n[nH]2)cc1,-5%
O=C(CC1C(=O)NCCN1C(=O)Nc1ccc(F)cc1)Nc1ccc(F)cc1 (configuration not stated),-2%
CC(=O)N1CCC(N(C(=O)Nc2ccc(Cl)cc2)C(C)C)CC1,-11%
CSc1cccc(NC(=O)C2CCN(c3nc4ccccc4[nH]3)CC2)c1,15%
O=C(Cc1ccccc1)NCCCN1CCN(CCCNC(=O)Cc2ccccc2)CC1,7%
CCCCN(C(=O)CCC(=O)Nc1cc(C)on1)C(C(=O)NC1CCCC1)c1cccc(OC)c1 (configuration not stated),4%
CC1CCCCC12NC(=O)N(CC(=O)NC(=O)NCc1ccco1)C2=O (configuration not stated),-9%
Cc1[nH]c2ccccc2c1C(=O)COc1ccccc1,9%
CCc1ccccc1NC(=O)CCCN1C(=O)CCn2nc(-c3cn(C)c4ccccc34)cc21,5%
O=S(=O)(NCCNc1ncc(C(F)(F)F)cc1Cl)C(F)(F)F,-11%
CNc1ncncc1-c1ccccc1OC,3%
Cc1ccc(S(=O)(=O)Nc2nc(-c3ccccc3)cs2)cc1,-1%
COc1ccc(C(=O)NCC(=O)N/N=C/c2cn[nH]c2-c2ccccc2)cc1,-10%
CCOc1cc(C2C(C(=O)Nc3ccccc3)=C(C)Nc3ncnn32)cc(Br)c1O (configuration not stated),-2%
O=C(Nc1ccc(S(=O)(=O)N2CCCCC2)cc1)c1cccnc1Cl,-17%
CSc1nnc(NC(=O)c2nc(S(=O)(=O)Cc3cccc(C)c3)ncc2Cl)s1,14µM*

# Compounds shown so far that have a thiophene ring, fused or not:
SMILES,VDR inh
CCN(Cc1cccs1)C(=O)CN1C(=O)NC2(CCCc3ccccc32)C1=O (configuration not stated),1%
CCCN(S(=O)(=O)c1ccc(OCC)cc1)S(=O)(=O)c1cccs1,-17%
Cc1sc2ncnc(N=Nc3c(O)[nH]c4ccccc34)c2c1C,-8%

# Further structures
SMILES,VDR inh
COc1ccc(C2CC(c3cccs3)n3nc(N)nc3N2)cc1 (configuration not stated),-1%
Cc1cc(=O)n(Cc2ccccc2)c2c(C)cccc12,-8%
O=C1NC(=O)N(C2CCCCC2)CC1Br (configuration not stated),-4%
Cc1ccc(-c2nnn(CC(=O)N(c3ccc(F)cc3)C(C(=O)NC(C)(C)C)c3ccco3)n2)o1 (configuration not stated),-13%
O=C(Nc1ccn(CCCNCc2ccccc2)c(=O)n1)OCc1ccccc1,-2%
COc1ccccc1C(=O)NCc1ccc2c(c1)CCN2C(=O)c1cccc(C)c1,24%
O=C(NCC1CCCO1)c1ccc(Cl)c(S(=O)(=O)N2CCOCC2)c1 (configuration not stated),-21%
CCc1ccc(C(=O)Nc2cccnc2Oc2ccc(Cl)cc2)cc1,4%
Cc1noc(C)c1NC(=O)Nc1cccc2c1O[C@H](CN(C)S(=O)(=O)c1c(C)noc1C)[C@@H](C)CN([C@H](C)CO)C2=O,9%
Nc1ccc2ccccc2c1[N+](=O)[O-],12%
Cc1cc(C(=O)NCC(C)(C)N2CCOCC2)c(C)o1,5%
CCCCNC(=O)CSc1nc(Cc2ccccc2)nc2ccccc12,-4%
COc1ccc(C2=NN(C(=O)CCC(=O)O)C(c3ccccc3OC)C2)cc1 (configuration not stated),16%
C=CCn1c(N2CCN(c3ccc(OC)cc3)CC2)nc2c1c(=O)[nH]c(=O)n2C,12%
COc1ccc(/C=C/C(=O)N(C)Cc2cccs2)cc1S(=O)(=O)N1CCOCC1,-8%

# A section from further up:
SMILES,VDR inh
C=CCn1c(N2CCN(c3ccc(OC)cc3)CC2)nc2c1c(=O)[nH]c(=O)n2C,12%
COc1ccc(/C=C/C(=O)N(C)Cc2cccs2)cc1S(=O)(=O)N1CCOCC1,-8%

# Further compounds.
SMILES,VDR inh
Cc1c(Cl)cccc1NC(=O)Cc1cccs1,3%
COc1ccc(NC(=O)Nc2nnc(SCC(=O)Nc3cccc(C)c3C)s2)cc1,4%
Cc1noc(C)c1COc1cccc(C(=O)NCc2cccc(Cl)c2)c1,-2%
COc1ccc(Cl)cc1NC(=O)CN(C)C(=O)c1ccc(C)s1,-8%
COc1ccc(CNC(=O)CSc2ccsc2[N+](=O)[O-])cc1,5%
O=C(COc1ccc(Cl)cc1)OCc1csc(Nc2ccccc2)n1,-17%
COc1ccc(C(=O)NN2CCOCC2)cc1[N+](=O)[O-],14%
O=C(CCn1c(=O)c2ccccc2n(Cc2ccccc2)c1=O)NCc1ccc2c(c1)OCO2,-7%
Cc1ccc2c(c1)N(CC(=O)N1CCCC1)C(=O)CO2,-5%
CCn1c(NCc2cccc(Cl)c2)nc2ccccc21,3%
Cc1cc(O)c(CN2CCN(c3ccccc3)CC2)c2oc(=O)cc(C)c12,9%
Cc1sc2nc(COC(=O)c3ccc(N4CCCC(C)C4)c([N+](=O)[O-])c3)[nH]c(=O)c2c1C (configuration not stated),-24%
C/C=C1\COC(C(=O)NCc2cccc(OC)c2OC)(C(F)(F)F)C=C1C=C(C)C (configuration not stated),-14%
CCc1ccccc1-n1c(SCC(=O)NC)nnc1-c1cccnc1,6%
Cc1cc(-c2nnc(CCC(=O)NC(Cc3ccccc3)c3ccccc3)o2)no1 (configuration not stated),-5%
O=S(=O)(NCc1ccc(Cl)cc1)NCc1ccccc1F,-9%
c1csc(-c2nnc(COc3ccc4c(c3)OCO4)o2)c1,10%
CC(=O)c1c(C)nn(CCC(=O)O)c1C,?
O=C(C1CC=CCC1)N1CCN(C(=O)C2CC=CCC2)CC1 (configuration not stated),-22%
Cc1ccc(C)c(N2CCN(C(=O)CN3C(=O)c4ccccc4C3=O)CC2)c1,-2%
Cc1cc(S(=O)(=O)Nc2cc3c(cc2C)n(C)c(=O)c(=O)n3C)ccc1F,2%
COc1ccccc1N1CCN(C(=S)Nc2ccc(F)cc2)CC1,-8%
COc1ccc2nc(NC(=O)CSc3nnc(C)s3)sc2c1,3%
CCOc1ccccc1N1CCN(C(=S)NC(=O)C23CC4CC(CC(C4)C2)C3)CC1,-17%
Cc1nc(NC(=O)c2cc3c(C)nn(-c4ccccc4)c3s2)sc1C(=O)Nc1ccccc1,-13%
CCc1ccc(CNCc2cccs2)cc1,0%
CN(Cc1ccccc1)C(=O)c1cccc(N2C(=O)NC3CC2(C)Oc2ccccc23)c1 (configuration not stated),-7%
Fc1ccc(-c2cnn3c(-c4ccncc4)ccnc23)cc1,-19%
Cc1ccc(NC(=S)N2CCC(NC(=O)c3ccccc3)CC2)cc1,-10%
O=S(=O)(c1ccc(-n2cnnn2)cc1)N1CCN(c2ccccc2F)CC1,-9%&11%

# The last five records of the section before come first, to join the parts:
SMILES,VDR inh
CCc1ccc(CNCc2cccs2)cc1,0%
CN(Cc1ccccc1)C(=O)c1cccc(N2C(=O)NC3CC2(C)Oc2ccccc23)c1 (configuration not stated),-7%
Fc1ccc(-c2cnn3c(-c4ccncc4)ccnc23)cc1,-19%
Cc1ccc(NC(=S)N2CCC(NC(=O)c3ccccc3)CC2)cc1,-10%
O=S(=O)(c1ccc(-n2cnnn2)cc1)N1CCN(c2ccccc2F)CC1,-9%&11%
O=S(=O)(c1cccs1)N1CCC(CO)(Cc2cccc(F)c2)CC1,-5%
COc1cc(C=O)ccc1OCCOCCOc1c(C)cc(Cl)cc1Cl,1%
CCOc1cccc2cc(C(=O)N3CC(C)OC(C)C3)c(=O)oc12 (configuration not stated),-22%
COc1ccc(-c2ncc3ccccn23)cc1OC,8%
COc1ccc(N2CCN(C(=O)C(Cc3ccccc3)n3cccc3)CC2)cc1 (configuration not stated),22%
Cc1ccc(C)c(NC(=S)N2CCN(Cc3ccccc3)CC2)c1,-11%
CCN1CCCc2cc(CN(CCN3CCOCC3)C(=S)Nc3cccc(Cl)c3)ccc21,20%
CC1CCN(S(=O)(=O)CCNC(=O)c2ccccc2)CC1,-8%
CC(C)CN1C(=O)c2ccc(C(=O)Nc3nccs3)cc2C1=O,6%
CN(C)CCCOC(=O)COc1ccc(Br)cc1,-10%
CCC(=O)Nc1ccc(/C(C)=N\NC(=O)c2ccc(C)s2)cc1,-1%
CC(=O)Nc1ccc(/C=N/NC(=O)c2cccs2)cc1,-13%
CCc1c(C)sc2c1CCN(C(=O)Nc1cc(C)ccc1OC)C2c1ccc(F)cc1 (configuration not stated),13%
COc1ccc(OC)c2sc(N3CCN(C(=O)c4ccc([N+](=O)[O-])s4)CC3)nc12,-6%
COc1ccc(C(NC=O)c2cc(OC)c(OC)cc2Br)cc1OC (configuration not stated),-18%
Cc1ccccc1C(=O)N1CCC(C(=O)NC(C)c2ccc(-n3ccnc3)cc2)CC1 (configuration not stated),-20%
COc1cc(C(=O)OCC(=O)Nc2ccc(S(=O)(=O)NC3=NCCCCC3)cc2)cc(OC)c1OC,-4%
FC(F)(F)c1cc(-c2ccccc2)nc2nc(N3CCOCC3)sc12,0%
O=C(Nc1ccc(F)c(Cl)c1)C1CCN(S(=O)(=O)c2ccc3c(c2)CCCN3C(=O)C2CCC2)CC1,2%
O=C(CCS(=O)(=O)c1ccc(F)cc1)Nc1ccc(N2CCN(Cc3ccccc3)CC2)cc1,-8%
C=CCn1c(SCc2ccccc2)nc(O)cc1=O,-1%
O=C1CC(C(=O)O)S/C(=N\NC(=O)c2ccccc2)N1 (configuration not stated),7%
COc1cccc(NC(=O)c2ccc(-c3ccccc3[N+](=O)[O-])o2)c1,-12%
COc1ccc(/C=N/NC(=O)Cn2cnc3ccccc3c2=O)cc1OC,-8%

# High-throughput results: PubChem, National Center for Advancing Translational Sciences (NCATS)
